NPYLR7 agonist: activates Aedes aegypti NPYLR7 receptor; HEK293T NPYLR7/Galpha15, GCaMP6s calcium fluorescence; activation, % at 10 µM; 270,000 tested, 0.15% active; AID 1259423; in the data active means activation above about 40%;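 further: 0% = vehicle and 100% = reference agonist at the receptor; some compounds past the cut are filed as inactive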
NPYLR7 agonist max-min: also measured in NPYLR7 agonist; calls as there; activation, %; measured here: Max-Min RFU normalised activation; some inactives read as strong as hits;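 span of the calcium signal over five minutes; 0% = vehicle and 100% = native peptide agonist; compound fluorescence can raise it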
Active calls of the source: *; & = joins results of further samples.

SMILES,NPYLR7 agonist,NPYLR7 agonist max-min
COc1cc2oc3ccccc3c2cc1N(CC(=O)N(C)C)S(=O)(=O)c1ccccc1,5,11
CN1CCC(NC(=O)C2CCN(c3nccc(Nc4ccccc4)n3)CC2)CC1,-1,-5
CNC(=O)[C@H]1CN(C(=O)CCc2ccccc2)[C@]2(C)C(=O)N(C)c3ccccc3[C@H]12,22,31
COC(=O)Cc1cc(C2CCN(C(=O)c3nc4c(s3)CCCC4)CC2)n[nH]1,20,10
Cc1nc(N2CCN(C(=O)c3c[nH]c4ccccc34)CC2)cc(-n2ccnc2)n1,-16,-22
O=C(/C=C/c1ccc(OC(F)F)cc1)Nc1nncs1,9,6
Cc1ccccc1S(=O)(=O)NC(=O)C1(C)CCN1C(=O)c1c(C)noc1C (stereo unspecified),1,1
CC(C)(O)C#Cc1cccc(C(=O)N2CCNC(=O)C2c2ccc(F)cc2)c1 (stereo unspecified),16,3
CCc1c(C)nn(CC(=O)N[C@@H]2CC[C@@H](N)C2)c1C,-4,11
CCCCN(C1CCS(=O)(=O)C1)S(=O)(=O)c1ccc(Cl)c(Cl)c1 (stereo unspecified),0,33
COC(=O)c1ccc(C=NNc2ncnc3sc4c(c23)CCCC4)cc1,1,5
Cc1[nH]cnc1CN(Cc1nccn1C)C1CC1,8,6
COc1ccc(CN(Cc2ccco2)C(=O)c2ccc(Cl)cc2)cc1OCc1nc(CO)cs1,13,18
Cc1c(Cl)cccc1OCC(=O)NCc1ccon1,-2,-3
CC(C)(C)S(=O)CCNC(=O)Cc1ccco1 (stereo unspecified),0,-4

Additional compounds follow:
SMILES,NPYLR7 agonist,NPYLR7 agonist max-min
COc1cccc(Nc2nccc3c2cc(-c2ccc(C(=O)N(C)C)cc2)n3C)c1,6,-6
Cc1ncsc1CCCn1ccnc1-c1ccc(S(C)(=O)=O)cc1,10,4
COc1ccc(NC(=O)NNc2cc(N3CCOCC3)nc(N3CCOCC3)n2)cc1,-4,-7
Cc1ccc(-c2cnn(C(C)(C)C(=O)NC3CCCCC3)c2)c(C)c1,13,27
CCN(CCO)c1ccc(Nc2cc(-c3ccc(-c4ccccc4)cc3)ncn2)cc1,11,7
CCc1cc(C(C)NC(=O)C2(c3ccccc3F)CC2)on1 (stereo unspecified),-3,-11
COCCN1CC(C)(C)CN(C(=O)c2ccc(SC)cc2)CC1=O,24,31
COc1ccc(OCC2CN(C(=O)c3ccc(OC(F)F)cc3)CCO2)cc1 (stereo unspecified),30,23
CCN(Cc1ccc(-c2ccccn2)cc1)C1CCS(=O)(=O)C1 (stereo unspecified),20,10
CN(CCC#N)C(=O)CSc1nc2ccccc2c(=O)n1C1CC1,2,0
CCOCCCn1c(=N)c(C(=O)OCC)cc2c(=O)n3ccccc3nc21,2,3
O=C(COC(=O)c1ncc(Cl)c(Cl)c1Cl)c1ccc(Cl)s1,-1,-1
Cc1cc(C(C)(C)C)c(O)c(C)c1CC1=NCCN1,-9&-6&0&5,9&-14&-5&-39
NC(=O)CN1CCCN(C(=O)c2ccc(-c3ccc(F)cc3)s2)CC1,3,0
O=C1c2ccc(-c3nc4ccc(Br)cc4c(=O)o3)cc2C(=O)N1CC1CCCO1 (stereo unspecified),9,6

Additional structures
SMILES,NPYLR7 agonist,NPYLR7 agonist max-min
Cc1ccn2cc(C(=O)N(Cc3ccc(F)cc3)CC3CCCO3)nc2c1 (stereo unspecified),8,1
CC1(C)Cc2cc(C(=O)O)sc2-c2ccccc21,3,2
COc1ccc(N2CCN(c3ncnc4c3cnn4CCNC(=O)c3ccco3)CC2)cc1,-2,-4
COc1cccc(-c2nnc(SCc3ccc(C(=O)NCc4ccco4)cc3)n2-c2ccccc2OC)c1,15,19
Cc1cc(C=C2C(=O)OC(C)(C)OC2=O)c(C)n1-c1cc(C(F)(F)F)ccc1Cl,-2,-6
COc1cccc(C(=O)N(CC(=O)N(CCc2c[nH]c3ccccc23)Cc2ccc(OC)c(OC)c2)C2CC2)c1,22,18
COc1ccc(C(C)NC(=O)C2CCN(CCOc3ccc(Cl)cc3)CC2)cc1OC (stereo unspecified),-8,-9
Cc1nn(C(=O)c2nn(C)cc2Br)cc1[N+](=O)[O-],3,3
C=CCN(CC=C)C(=O)c1ccc(-c2ccc(OCC)cc2)s1,18,29
O=c1oc(-c2cc([N+](=O)[O-])ccc2Cl)nc2ccccc12,-12,-14
CCOC(=O)c1c(SCC(=O)c2ccccc2)nc(=O)[nH]c1C,5,9
Cc1ccc(S(=O)(=O)Nc2cc(S(=O)(=O)N(C)C)ccc2N(C)C)c(C)c1,-1,-4
Cc1cccc(Cn2c(C)c(C)c(C)c2C(=O)N2CCN(c3ccccc3C)CC2)c1,33,34
Cc1cccc(Cn2c(=O)c(C(=O)NCc3ccco3)nn(-c3ccc(C)c(F)c3)c2=O)c1,3,9
COc1cccc(CN2CCCn3cccc3C2c2ccc(F)cc2)c1 (stereo unspecified),-11,-12

The last 3 records of the part above lead into the next.
SMILES,NPYLR7 agonist,NPYLR7 agonist max-min
Cc1cccc(Cn2c(C)c(C)c(C)c2C(=O)N2CCN(c3ccccc3C)CC2)c1,33,34
Cc1cccc(Cn2c(=O)c(C(=O)NCc3ccco3)nn(-c3ccc(C)c(F)c3)c2=O)c1,3,9
COc1cccc(CN2CCCn3cccc3C2c2ccc(F)cc2)c1 (stereo unspecified),-11,-12
CCCCCCCCCCCCCCCC(=O)Nc1ccc2[nH]cc(CCN3CCCC3)c2c1,16,12
COc1ccc(-c2nc(C)ncc2C)cc1Cl,5,1
Cn1ccccc1=NCCc1c[nH]c2ccccc12,2,1
C=CCN(Cc1nc(-c2ccccc2)no1)C(=O)[C@H](N)c1ccccc1,11,-5
COc1cccc(CNC(=O)C(=O)Nc2ccc3c(c2)CCCN3C(=O)c2cccs2)c1,11,6
CCN(CC)C(=O)CN1CCN(C(=O)c2cn(C(C)C)cc3c(=O)n(-c4ccccc4)nc2-3)CC1,-4,-8
CN(Cc1ccc(Cl)c(Cl)c1)C(=O)c1csc(-c2cccs2)n1,5,5
CC1(C(=O)NC2CCc3ccccc32)CCN1Cc1ccc2c(c1)OCCO2 (stereo unspecified),6,-1
COC(=O)c1cc(-c2ccco2)nc2c1c(-c1cccs1)nn2C1CCS(=O)(=O)C1 (stereo unspecified),11,7
O=C(Nc1ccnn1Cc1cccs1)c1ccc(Br)s1,2,9
Cc1nc(N2CCN(C(=O)c3ccccc3C(F)(F)F)CC2)cc(-n2ccnc2)n1,-14,-19
CCc1ccccc1-n1c(C)c(C)n2c3c(=O)n(C(C)C(C)=O)c(=O)n(C)c3nc12 (stereo unspecified),-2,10
O=C(CCN1CCc2sccc2C1c1cccc(F)c1)N1CCN(C(=O)c2cccs2)CC1 (stereo unspecified),6,-5
CCNC(=O)NC(=O)C(Sc1ccccn1)c1ccccc1 (stereo unspecified),-1,-2
CC(C)c1cc(NC(=O)c2cccc(CN(C)CCO)c2)n(C)n1,2,-8

Next results follow:
SMILES,NPYLR7 agonist,NPYLR7 agonist max-min
NC(=O)C(Sc1ncc2ccccn12)c1ccccc1 (stereo unspecified),4,2
O=C(c1ccc[nH]1)N1CCc2onc(-c3ccccc3F)c2C1,3,1
CCOC(=O)CNC(=O)CSc1ccc2nnc(-c3ccncc3)n2n1,0,-2
O=C(N=C1N=C2N=CC=CN2Cc2ccccc21)Nc1ccc(Cl)c(Cl)c1,-1,-2
Cc1noc(-c2ccc(C(C)(C)C)cc2)c1C(=O)NCC1CCCO1 (stereo unspecified),7,16
O=S(=O)(N1CCCCCC1)N1CCc2[nH]c3ccccc3c2C1,12,6
COc1ccc(CCN(CC2CCN(C)CC2)C(=O)c2cc(C(C)C)nn2C)cc1,12,4
Cc1cc(C)c(NC(=O)CNC(=O)CCc2ccc(C3CC3C)o2)c(C)c1 (stereo unspecified),10,8
Cc1cc2c(cc1C)[n+](C)cn2CC(O)COC1CCCCC1 (stereo unspecified),2,-1
CN(C)C(=O)CSc1nnc(-c2cccnc2)n1Cc1ccco1,3,11
CCOC(=O)C1(CC2CCCCO2)CCN(C(=O)c2n[nH]c3ccc(C)cc23)CC1 (stereo unspecified),19,13
CN(C)N=CC=C1CCCC(=Cc2cc(Br)cs2)C1=O,5,3
Cc1ccc(C2c3ccccc3CCN2C(=O)C2CCC2)cc1 (stereo unspecified),-4,3
CCOc1ccc(-c2ccc(C(=O)NCCc3cccc(Cl)c3)s2)cc1,25,34
Cc1ccc(CN(C)CC(=O)NC(c2cccs2)C(C)C)cc1 (stereo unspecified),-1,-2

Next structures:
SMILES,NPYLR7 agonist,NPYLR7 agonist max-min
CN1CCN(c2ccc(C(=O)N(C)C3CCCN(Cc4ccccc4F)C3)cc2)CC1 (stereo unspecified),6,1
Cc1cccc(-n2cc(-c3ccn(CC(=O)Nc4ccnn4C)n3)cn2)c1,2,-7
COc1cc(CN2CCNC(=O)C2CC(=O)NCc2ccncc2C)cc(OC)c1 (stereo unspecified),3,2
Cc1oc(-c2ccc(F)cc2)cc1-c1nn2c(-c3ccoc3C)nnc2s1,3,1
O=C(NC1c2ccccc2-c2ccccc21)C1CCC(=O)N(Cc2ccc(Cl)cc2)C1 (stereo unspecified),3,-1
Cc1ccc(NC(=O)CN[C@H](C(N)=O)C(C)C)cc1F,23,11
COc1ccccc1NC(=O)N(C)CCN1C(=O)C(C)SC1c1sccc1C (stereo unspecified),27,29
CCCCC(CC)C(=O)N1CCC(Cc2ccc(C(F)(F)F)cc2)CC1 (stereo unspecified),1,10
Cc1oc(C(=O)N2CCCC2)cc1S(=O)(=O)N(C)c1ccccc1,-7,-10
CC(C)c1cc(C(=O)N2CCC3(CC2)C(=O)NCCN3C)cs1,-3,2
NC1(C(=O)NCCCn2ncc3ccccc32)CC1,10,10
O=S(=O)(c1ccc(C(F)(F)F)cc1Cl)N1CCN(c2nccc(-c3ccco3)n2)CC1,5,4
CCC(C(=O)NCc1cccc(C(F)(F)F)c1)n1c(=O)n(CC)c(=O)c2ccccc21 (stereo unspecified),2,8
CCOC(=O)c1c(-c2ccc(C)c(C)c2)csc1NC(=O)C1CCCO1 (stereo unspecified),-2,-7
COc1ccccc1CN(CCC(C)C)CC(O)COc1ccccc1C (stereo unspecified),23,21

(listing goes on)
SMILES,NPYLR7 agonist,NPYLR7 agonist max-min
COc1ccc(CCNC(=O)CCCn2nc(-c3cccs3)ccc2=O)cc1,1,5
NC(N)=N/N=C/c1c(Cl)cccc1Cl,-3&-6,-12&-9
Cc1ccc(CC2(NC(=O)c3cc(=O)[nH][nH]3)CC2)cc1,4,3
COc1ccc(Cn2ccnc2CN(C(=O)c2ccccc2F)C(C)C)cc1,4,7
O=C1CC(Nc2ccc3c(c2)OCO3)C(=O)N1Cc1ccccc1 (stereo unspecified),5,11
CC(C)NC(=S)NN=CC=C1N(C)c2ccccc2C1(C)C,4,12
CN1CC2(CCCN(Cc3nc4c(s3)CCCC4)CC2)OC1=O (stereo unspecified),3,2
CN1CC(=O)N2CCN(S(=O)(=O)c3ccc(F)cc3F)CC2C1=O (stereo unspecified),8,7
O=C(Nc1c2c(nn1-c1nc3ccccc3s1)CCC2)C1=COCCO1,4,3
COc1cc(OC)cc(C(=O)N2CCN(c3nc4nccc(-c5cccc(C)c5)n4n3)CC2)c1,5,3
Oc1[nH]c2ccccc2c1N=Nc1nc(-c2ccccc2)c2cc(Br)ccc2n1,23,17
CCCn1c(=O)[nH]c(=O)c2c(C(=O)Nc3c(C)nn(C)c3C)cc(C3CC3)nc21,3,3
S=c1[nH]nc(COc2ccc(Cl)cc2)o1,3,7
CSCCC(=O)N1CCN(CC(=O)N2CCCC2)CC1,0,0
O=C(CC1(c2cccc(F)c2)CC(=O)N(C2CCCC2)C1=O)N1CCN(c2ccccc2F)CC1 (stereo unspecified),3,4

Profiles, quoted from the list:
COc1ccccc1CN(CCC(C)C)CC(O)COc1ccccc1C (stereo unspecified) in the list: NPYLR7 agonist: 23; NPYLR7 agonist max-min: 21
Cc1ccc(-c2cnn(C(C)(C)C(=O)NC3CCCCC3)c2)c(C)c1 in the list: NPYLR7 agonist: 13; NPYLR7 agonist max-min: 27

Following part.
SMILES,NPYLR7 agonist,NPYLR7 agonist max-min
O=P(CCCO)(Cc1ccccc1)Cc1ccccc1,9,7
Cc1ccc(-c2nc(N3CCN(c4ccccc4Cl)CC3)c3ccccc3n2)cc1,1,-5
CCOC(=O)c1nn(-c2ccc(F)cc2)c(=O)cc1OS(=O)(=O)c1cc(C)ccc1OC,-4,0
O=C1CCCN1c1ccccc1NCc1cccc(F)c1,-2,-3
CCC(=O)Nc1ccc(OCC(=O)N(C)C(C)c2ccon2)cc1 (stereo unspecified),11,1
CC(C)N(CC(=O)N(CCc1c[nH]c2ccccc12)Cc1ccc(C(F)(F)F)cc1)C(=O)Nc1ccccc1C(F)(F)F,19,13

2 of the compounds above, with values under each structure.
Screens in order: NPYLR7 agonist, NPYLR7 agonist max-min
CNC(=O)[C@H]1CN(C(=O)CCc2ccccc2)[C@]2(C)C(=O)N(C)c3ccccc3[C@H]12
  22, 31
COC(=O)Cc1cc(C2CCN(C(=O)c3nc4c(s3)CCCC4)CC2)n[nH]1
  20, 10

Screening data: PubChem BioAssay, Fisher Drug Discovery Resource Center

A portion of the library. The share of hits here may be higher or lower than overall.
